PINK1 expr mod – PINK1 expression modulation; PINK1 immunofluorescence, high-content cytometry, 24 h; Potency, µM (series often up to 76.6 µM), without a hit: at the top dose activation (PINK1 increase), usual class: activators; actives 0.2% (n = 410,000); AID 624263; active = well fitted activation curve with a large enough effect; inconclusive = small, poorly fitted or top-dose-only effect; inactive = flat fitted curve, though single readings scatter; cell line not stated here;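 also: % of control where 0% means no effect; nearly all actives have a fitted effect of over 65% in size; a mitochondrial uncoupler was the plate control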
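PINK1 protein level read as immunofluorescence by microplate cytometer in a fixed, stained stable cell line after 24 h exposure to five compound concentrations, with CCCP as control.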
An asterisk follows results filed as active; ? = inconclusive. Potency is read from the fitted curve at half-maximal effect.

The first 2 entries, to show the layout:
Molecule | PINK1 expr mod
CCOC(=O)c1c(C)[nH]c(CCC(=O)NCCCN2CCN(c3cc(C)ccc3C)CC2)c1C | 3.5%
COc1ccccc1NC(=O)C1CCN(S(=O)(=O)c2cn(C)cn2)CC1 | 0.0%

Main list, previewed entries included:
Molecule | PINK1 expr mod
CCOC(=O)c1c(C)[nH]c(CCC(=O)NCCCN2CCN(c3cc(C)ccc3C)CC2)c1C | 3.5%
COc1ccccc1NC(=O)C1CCN(S(=O)(=O)c2cn(C)cn2)CC1 | 0.0%
COc1ccc(C2=NN(C(C)=O)C(c3cn(-c4ccccc4)nc3-c3cccs3)C2)cc1 (stereo unspecified) | 9.3%
CSc1cccc(Nc2cc(C(=O)NC3CCCCC3)c3ccccc3n2)c1 | 13%
Cc1nn(S(=O)(=O)c2ccc(C(C)C)cc2)c(C)c1S(=O)(=O)N1CCCCCC1 | 0.0%
CC(C)c1ccc(S(=O)(=O)c2nnn3c2nc(NCCc2ccccc2)c2sccc23)cc1 | 0.5%
CC(C)CCN(Cc1ccco1)C(=O)c1cc2c(s1)-c1ccccc1OC2 | 9.5%
Cc1cccc(OCC(=O)Nc2ccc(Cl)c(-c3nc4ccccc4[nH]3)c2)c1 | -0.2%
COCCNC(=O)c1sc2nc3n(c(=O)c2c1C)CCC3 | -0.4%
CCOC(=O)N1CCN(C(=O)c2cnn(-c3cccc(C)c3)c2-n2cccc2)CC1 | 1.9%
Cc1ccc(S(=O)(=O)c2nnn3c2nc(NC2CCCCC2)c2sccc23)cc1C | -0.1%
CC(C)c1ccc(NC(=O)c2cc3sc(Cl)cc3n2C)cc1 | 11%
COc1ccc(NC(=O)Cn2c(=O)n(CCc3ccccc3)c(=O)c3ccccc32)cc1 | 15%
COC(=O)c1cc(NC(=O)Cn2nc(-c3ccccc3)c3c(c2=O)CCCC3)cc(C(=O)OC)c1 | 2.3%
CCOC(=O)c1cc(-c2ccc(OC)cc2)n(CCC(=O)NC2CCC(C)CC2)c1C (stereo unspecified) | 0.9%
O=C(CSc1nc2c(oc3ccccc32)c(=O)n1Cc1ccco1)Nc1ccccc1Cl | 0.2%
CC(=O)NC1=CC(=O)c2nonc2C1=O | -0.5%
CCCCCn1cc2c(c1-c1ccc(Br)cc1)c(=O)n(C)c(=O)n2C | 0.1%
COc1ccc(C2=C(C)C(N3CCN(c4ccc(OC)cc4)CC3)=NS2(=O)=O)cc1 | 7.5%
Cc1ccccc1NC(=O)c1c(NC(=O)C(C)Oc2cccc(Cl)c2)sc2c1CCCC2 (stereo unspecified) | -0.3%

A stretch of the results above:
Molecule | PINK1 expr mod
Cc1cccc(OCC(=O)Nc2ccc(Cl)c(-c3nc4ccccc4[nH]3)c2)c1 | -0.2%
COCCNC(=O)c1sc2nc3n(c(=O)c2c1C)CCC3 | -0.4%

More results
Molecule | PINK1 expr mod
CCOc1ccccc1NC(=O)c1cc(S(=O)(=O)NC2CCCC2)ccc1F | 2.4%
Cc1cccc(C)c1NC(=O)c1c(C)oc2c1C1=NCCN1C=N2 | 3.4%
CCc1ccc2nc(N(CCN(CC)CC)C(=O)c3ccco3)sc2c1 | 11%
COc1ccc(Cl)cc1NC(=O)CSc1nc(-c2ccco2)cc(C(F)(F)F)n1 | 6.4%
Cc1cccc(CNS(=O)(=O)c2ccc(-c3coc(C)n3)cc2)c1 | -3.3%
COc1ccc(OCC(=O)NCC(c2ccc(Cl)cc2)N2CCCCC2)cc1 (stereo unspecified) | -0.2%
Cc1cc(NC(=O)CC(C)C)cc(-c2nc3ncccc3o2)c1O | 0.9%
CC1=C(c2ccc(C(C)C)cc2)S(=O)(=O)N=C1N1CCN(c2ccccc2F)CC1 | -0.6%
Cc1ccc(CSc2nncn3c2cc2sccc23)cc1 | 2.4%
COc1ccc(OC)c(CCNc2ncnc3onc(C)c23)c1 | 0.1%
Cc1ccccc1-c1noc(-c2ccc(N3CCCCC3)c([N+](=O)[O-])c2)n1 | 0.1%
Cc1ccc(NC(=O)Nc2nnc(N(C)Cc3ccccc3)s2)c(C)c1 | -0.2%
O=c1c2ccccc2n(Cc2cccc(F)c2)c(=O)n1Cc1ccccc1Cl | -0.1%
Cc1cccc(-c2nnc(C3CCN(S(=O)(=O)c4cccc(Cl)c4)CC3)o2)c1 | 1.0%
Cc1cc(C)c(NC(=O)Cn2c(=O)n(-c3ccc(F)cc3)c(=O)c3c(C)c(C(=O)N(C)C)sc32)c(C)c1 | 3.5%
CC(C)Oc1ccc(CNC(=O)C2CCCCN2S(=O)(=O)c2ccc(F)cc2)cc1 (stereo unspecified) | 1.7%
COc1ccccc1CNC(=O)CN1C(=O)CCc2cc(S(=O)(=O)N3CCCCC3)ccc21 | -0.1%
CCc1ccc(-n2c(=O)c3c4c(sc3n(CC(=O)N3CCC(C)CC3)c2=O)CCC4)cc1 | 0.1%
Fc1ccc2c(c1)-c1nc(-c3ccccc3)cc(-c3ccccc3)c1CO2 | 0.7%
COc1ccc(NC(=O)Cn2c(SCc3c(F)cccc3Cl)nc3ccncc32)cc1OC | 2.8%

Next compounds
Molecule | PINK1 expr mod
CCOc1ccccc1NC(=O)C1=C(C)Nc2ncnn2C1c1ccc(NC(C)=O)cc1 (stereo unspecified) | -4.3%
O=C(CC1C(=O)N(c2ccc(F)cc2)C(=O)N1Cc1cccnc1)Nc1ccc(F)cc1 (stereo unspecified) | 2.1%
COc1ccc(Cn2c(CNS(=O)(=O)c3ccc4c(c3)CCCC4)nc3cccnc32)cc1 | 6.8%
CCOc1ccccc1C(=O)Oc1c(S(=O)(=O)c2ccc(C)cc2)c(C)nn1-c1ccccc1 | ?
Oc1ccc(NCc2ccccc2OCc2ccccc2Cl)cc1 | 1.8%
Cc1cccc(Cc2cnc(NC(=O)c3ccc4c(c3)CC(c3ccccc3)OC4=O)s2)c1 (stereo unspecified) | 1.6%
COc1cccc(NC(=O)CN(CCc2ccccc2)S(=O)(=O)c2ccc(Cl)cc2)c1 | -0.2%
O=C(Nc1ccccc1C(F)(F)F)N1CC=C(c2c[nH]c3ccccc23)CC1 | 0.1%
Cc1cccc(OCC(=O)Nc2c(C(=O)N3CCN(c4ccccc4)CC3)oc3ccccc23)c1 | -0.5%
COc1cccc(-n2ccn(CC(=O)NCc3ccc(C)cc3)c(=O)c2=O)c1 | 3.0%
COc1ccc(Cl)cc1-n1nnc(-c2nc(-c3ccccc3)no2)c1C | 0.0%
Cc1c(C(=O)NCc2nccs2)cnn1-c1ncc2c(n1)-c1ccccc1CC2 | 1.5%
COc1ccc(SCc2cc(=O)c3cc(Cl)ccc3[nH]2)cc1 | ?
Cc1ccc2[nH]c(=O)c3cc(C(=O)NCCc4ccc(Cl)cc4)sc3c2c1 | 1.6%
COc1ccc(NC(=O)c2c(-c3ccc(C)cc3)nnc3ccccc23)c(OC)c1 | 0.2%
O=S(=O)(c1cccc(C(F)(F)F)c1)N1CCN(c2nc(-c3cccs3)nc3cc(Cl)ccc23)CC1 | -1.2%
COc1ccc(OC)c(CNC(=O)Cc2ccc(NC(=O)N3CCSc4ncccc43)cc2)c1 | 0.2%
COc1ccc(CNC(=O)C(=O)Nc2cc(Cl)ccc2OC)cc1 | 1.5%
O=C(Nc1nnc(S(=O)(=O)N2CCCc3ccccc32)s1)c1cccc(Cl)c1 | 0.8%
Cc1ccc2c(Sc3ccc(Cl)cc3)c(C(=O)N3CCC(C)CC3)[nH]c2c1 | 9.5%

Next part (seven carried over from the part before).
Structure | PINK1 expr mod
Cc1ccc2[nH]c(=O)c3cc(C(=O)NCCc4ccc(Cl)cc4)sc3c2c1 | 1.6%
COc1ccc(NC(=O)c2c(-c3ccc(C)cc3)nnc3ccccc23)c(OC)c1 | 0.2%
O=S(=O)(c1cccc(C(F)(F)F)c1)N1CCN(c2nc(-c3cccs3)nc3cc(Cl)ccc23)CC1 | -1.2%
COc1ccc(OC)c(CNC(=O)Cc2ccc(NC(=O)N3CCSc4ncccc43)cc2)c1 | 0.2%
COc1ccc(CNC(=O)C(=O)Nc2cc(Cl)ccc2OC)cc1 | 1.5%
O=C(Nc1nnc(S(=O)(=O)N2CCCc3ccccc32)s1)c1cccc(Cl)c1 | 0.8%
Cc1ccc2c(Sc3ccc(Cl)cc3)c(C(=O)N3CCC(C)CC3)[nH]c2c1 | 9.5%
CCCOc1ccc(-c2nc(SCC(=O)c3ccc(Cl)cc3)n[nH]2)cc1 | 12%
COc1ccc(NC(=O)C(=O)NCC(c2ccc3c(c2)OCO3)N2CCN(C)CC2)cc1 (stereo unspecified) | 1.1%
COc1ccc(CN2C(=O)N(c3ccccc3)C(=O)C2c2ccccc2)cc1COc1ccc(NC(C)=O)cc1 (stereo unspecified) | 1.3%
Cc1ccc(C(=O)N2CCN(c3cccc(Cl)c3)CC2)cc1-n1c(C)nc2cccnc21 | 1.0%
Cc1ccc(-n2nc(C)c3c(C(=O)NCCc4ccc(S(N)(=O)=O)cc4)cc(C)nc32)cc1 | 1.7%
CCCn1c(SCc2nc(-c3ccc(OC)cc3OC)no2)nnc1-c1ccc(Cl)cc1 | -0.4%
CCC1CCCCN1CC(=O)Nc1cc(C)c2c(=O)oc3ccccc3c2n1 (stereo unspecified) | 0.7%
COCCNC(=O)C(=O)NCC(c1cccnc1)N1CCN(c2ccccc2OC)CC1 (stereo unspecified) | -0.4%
COc1cccc(NC(=O)C2CCN(S(=O)(=O)c3c(C)noc3C)CC2)c1 | -0.8%
Cc1cccc(Cc2c(C)nc3nc(SCC(=O)NC4CCCCC4)nn3c2C)c1 | 0.8%

New compounds follow.
Structure | PINK1 expr mod
O=C(NCCCc1nc2ccccc2n1Cc1ccc(Cl)cc1)c1ccco1 | -1.1%
CCOC(=O)c1sc2ccccc2c1S(=O)(=O)Nc1ccc(CC)cc1 | 8.2%
O=C(NCCc1ccccc1)c1ccc2c(c1)N(Cc1ccccc1F)C(=O)c1ccccc1S2=O (stereo unspecified) | -0.2%
COc1cccc(CNC(=O)c2c(C)nn(-c3cccc(C)c3)c2-n2cccc2)c1 | 1.8%
Cc1ccc(NC(=O)CCCn2c(=O)c3cccn3c3ccccc32)c(Cl)c1 | -1.1%
O=C(NC1CC(=O)N(c2ccccc2)C1)c1ccc(S(=O)(=O)N2CCOCC2)cc1 (stereo unspecified) | -0.6%
CCOC(=O)c1ccc(NC(=O)c2nc(SCc3ccccc3F)ncc2Cl)cc1 | -0.2%
Cc1cc(C)cc(NC(=O)CSc2nnc(CNC(=O)c3c(F)cccc3Cl)o2)c1 | 4.2%
O=C(COc1ccc(Cl)cc1)NCCc1csc(-c2ccc(F)cc2)n1 | 3.4%
CCCCn1cc(S(=O)(=O)c2ccc(C)c(C)c2)c(=O)c2cc(F)c(N3CCN(C)CC3)cc21 | 1.2%

Continuation:
Structure | PINK1 expr mod
CCOc1c(CC2C(=O)Nc3ccc(Br)cc32)cccc1OC (stereo unspecified) | 6.1%
Cc1cc(Nc2ccc(F)cc2)nc(-n2nc(C)cc2C)n1 | 0.6%
COc1ccc(-c2cc(C(F)(F)F)nc(SCCC(=O)Nc3ccc(OC)c(OC)c3)n2)cc1 | 6.9%
COc1cc(OC)c(NC(=O)Cn2c(=O)cc(C)c3c(C)nn(-c4ccc(C)cc4)c32)cc1Cl | 0.4%
CCc1ccc(/C=C(/C#N)c2nc(-c3ccc(C)cc3)cs2)cc1 | 2.9%
COc1ccc(C(=O)N2CCC(c3c[nH]c4ccccc34)(c3c[nH]c4ccccc34)CC2)cc1 | 1.4%
COc1ccc(-n2nc(C(=O)Nc3ccc(C(C)=O)cc3)nc2-c2ccccc2)cc1 | 3.2%
Cc1cccc(-c2nc(Cn3c(=O)cc(-c4ccccc4)c4c(C)nn(C)c43)c(C)o2)c1 | 0.6%
CCc1cccc(CC)c1NC(=O)CCS(=O)(=O)c1ccc(Br)s1 | 14%
COc1ccc(C2c3c(n(C)c4ccccc34)C(=O)N2CC(=O)Nc2ccccc2F)cc1 (stereo unspecified) | 0.9%

Other results follow.
Structure | PINK1 expr mod
CCOC(=O)C1CCN(C(=O)c2ccc3c(c2)sc2nc(-c4ccc(OCC)cc4)cn23)CC1 | 0.6%
O=C(Nc1cccc(Cl)c1)c1ccc(F)c(S(=O)(=O)N2CCC3(CC2)OCCO3)c1 | 1.6%
CCOc1ccc(NC(=O)c2c(C)nn(-c3ccc(F)cc3)c2-n2cccc2)cc1 | 5.1%
Cc1cccc2c(N3CCCC3)nc(CNS(=O)(=O)c3ccccc3F)nc12 | 1.4%
COc1ccc2c(c1)c1c(c(=O)n(-c3ccc(OC)c(OC)c3)c(=O)n1Cc1ccccc1F)n2C | 3.2%
CCOc1ccc(OCC)c(NC(=O)C2CCN(c3nnc(-n4cccc4)s3)CC2)c1 | -4.6%
CC(=O)N1c2ccc(S(=O)(=O)N3CCN(c4cc(Cl)ccc4C)CC3)cc2CC1C (stereo unspecified) | 4.0%
COc1ccc(N2CC(NC(=O)/C=C\c3ccccc3)CC2=O)cc1OC (stereo unspecified) | -0.3%
Cc1ccc(NC(=O)N2CCC(CN3CCCC3)CC2)c(C)c1 | 1.0%
CC(=O)c1ccc(N2CCN(C(=O)c3cc4cc5cc(C)ccc5nc4s3)CC2)cc1 | 0.9%

(listing goes on)
Structure | PINK1 expr mod
Cc1cn(C)c(CC(=O)N2CCN(c3ccccc3F)CC2)c1C(=O)O | 1.1%
COc1cc(NC(=O)C(CC(C)C)N2Cc3ccccc3C2=O)cc(OC)c1 (stereo unspecified) | 2.9%
CC1CN(C(=O)N2CCC(C(=O)NCCCc3ccccc3)CC2)c2cc(Cl)ccc2O1 (stereo unspecified) | -1.8%
COc1ccc(NC(=O)Cn2nnc3sc4c(c3c2=O)CCC(C)C4)c(OC)c1 (stereo unspecified) | -0.9%
O=C(NC[C@@H]1CCCN2CCCC[C@H]12)c1cnn(-c2nccc(-c3cc4ccccc4o3)n2)c1C1CC1 | 0.9%
Cc1cc(=O)n2nc(N3CCC(C(=O)Nc4ccc(C)c(Cl)c4)CC3)sc2n1 | 0.0%
Cc1c(Cl)cccc1-n1ncc(C(=O)Nc2ccc3c(c2)OCCO3)c1C1CCN(C(=O)OC(C)(C)C)CC1 | 0.3%
Cc1nc2ccn(Cc3cccnc3)c(=O)c2cc1C(=O)N1CCN(c2ccc(F)cc2)CC1 | 0.6%
CCCCc1nn2c(=O)cc(COC(=O)c3cccc(NC(=O)COc4ccccc4)c3)nc2s1 | -2.1%

The list is partial. The share of hits here may be higher or lower than overall.
